High-throughput results (PubChem)
CBX7 inh: blocks human CBX7 binding to H3K27me3 peptide; 66,000 compounds, 1.1% hits; AID 1224903; normalised signal (fraction of DMSO) (concentration not given with the values); O95931; AlphaScreen His6-CBX7 / biotin-H3K27me3 peptide binding; stronger effect = lower value; in the data active = normalised signal below about 0.5;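 also: 100 nL library stock added to about 20 µL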
Target sequence (O95931 whole entry, looked up): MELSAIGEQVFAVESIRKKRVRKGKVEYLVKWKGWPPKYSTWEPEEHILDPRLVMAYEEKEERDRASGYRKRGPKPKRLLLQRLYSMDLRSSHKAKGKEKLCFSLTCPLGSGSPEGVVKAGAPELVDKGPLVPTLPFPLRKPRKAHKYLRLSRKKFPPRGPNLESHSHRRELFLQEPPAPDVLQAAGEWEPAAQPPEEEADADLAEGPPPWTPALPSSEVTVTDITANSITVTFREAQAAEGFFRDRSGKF
CBX7 inh z-score: also measured in CBX7 inh; calls as there; z-score; measured here: z-score of CBX7 signal; some inactives read as strong as hits; reference of the scale not given here;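 same signal on another scale; lower means less binding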
An asterisk follows results filed as active; ! = a repeat was not active.

SMILES | CBX7 inh | CBX7 inh z-score
O=C(NCCCn1ccnc1)c1cc(-c2ccc(Cl)s2)nc2ccccc12 | 0.99 | -0.32
Cc1ccc(Nc2cc(C(=O)NCCCN3CCCC3)c3ccccc3n2)c(C)c1 | 0.99 | -0.38
O=C(CSc1nnc(CNC(=O)c2cccs2)o1)Nc1ccccc1C(F)(F)F | 1 | 2.2
Fc1ccc(-c2nnc3ccc(NC4CCCC4)nn23)cc1 | 0.95 | -1.1
CCc1ccc(-c2nc(CN3CCC(C(=O)NCC(OC)OC)CC3)c(C)o2)cc1 | 0.81 | -2.9
CCN(CC)CCCNC(=O)c1cc(-c2cccc(Cl)c2)on1 | 0.99 | -0.072
Cc1ccc(C(=O)Nc2ccccc2C(=O)N2CCC(C)CC2)cc1 | 1 | 0.16
O=C(Nc1ccc(-c2nc3ccccc3o2)cc1)c1ccccc1Cl | 0.98 | -0.22
CCOc1ccc(NC(=O)c2nn(-c3cc(OC)cc(OC)c3)c(=O)c3ccccc23)cc1 | 0.95 | -1.2
COc1ccccc1-n1cnc2cc(NCc3ccc(Cl)cc3)ccc21 | 0.71 | -12
CCC(Cc1ccccc1)NS(=O)(=O)c1ccc2c(c1)CCN2C(C)=O (stereo not drawn) | 1 | 0.13
O=C(CN1C(=O)c2ccccc2S1(=O)=O)N1CCC(Cc2ccccc2)CC1 | 1 | 0.82
Cc1ccccc1NCc1nc2ccccc2n1CCOc1ccccc1 | 0.88 | -4.4
COc1cc2c(cc1OC)C(C(=O)NCc1ccccn1)C1c3ccccc3CCN1C2=O (stereo not drawn) | 1.1 | 0.61
O=C1c2ccccc2C(Nc2cccc(C(F)(F)F)c2)N1c1cccnc1 (stereo not drawn) | 0.99 | -0.23
O=C(NC1CCCCCC1)c1ccc(NC2=NC3CS(=O)(=O)CC3S2)cc1 (stereo not drawn) | 1.1 | 0.94
OCCCNc1nc2nonc2nc1Nc1ccccc1F | 0.86 | -2.2
Cc1ccc(NC(=O)C2CCCN(S(=O)(=O)c3cccnc3)C2)cc1F (stereo not drawn) | 0.98 | -0.023
COc1ccc(Cc2nc(-c3ccc(OC)c(OC)c3)no2)cc1 | 0.98 | -0.24
Cc1ccc(C2CC(C(F)(F)F)n3nc(C(=O)NC4CCCCC4)cc3N2)cc1 (stereo not drawn) | 1 | 0.52
COC(=O)c1cc2sc(Cl)cc2n1Cc1nc(-c2ccccc2)oc1C | 1.1 | 2.7
COc1ccccc1-n1cc(C(=O)NCC(=O)Nc2ccc3c(c2)OCCO3)c2ccccc2c1=O | 1.4 | 4.2
COc1ccc(CCNc2nc(C)cc(C(F)(F)F)n2)cc1OC | 1.1 | 0.49
CN1CCSc2ccc(C(=O)NC3CCCCCC3)cc21 | 0.92 | -0.9
Cc1nc2cc(-c3ccccc3)nn2c(C)c1CCC(=O)Nc1ccc(CN2CCOCC2)cc1 | 1.1 | 2
CC(C)CC(=O)Nc1ccc(-c2nc3ncccc3o2)cc1 | 0.79 | -2.1
CC(NC(=O)C1CCN(S(=O)(=O)c2cccc3cccnc23)CC1)c1ccccc1 (stereo not drawn) | 1 | 0.3
CC(=O)NCCCc1nc2ccccc2n1Cc1cc(C)ccc1C | 1.1 | 2.2
Cc1sc(NC(=O)c2cccc(Cl)c2)nc1-c1ccccc1 | 0.91 | -1.3
Cc1ccc(CN2C(=O)C(C)(C)Nc3ccccc32)c(C)c1 | 0.94 | -1.9
COc1cc(-c2nc3cc(C)ccn3c2N)ccc1O | 1 | 0.49
CC1CCCC(NC(=O)CN2C(=O)COc3ccc(C(C)(C)C)cc32)C1C (stereo not drawn) | 0.78 | -4.4
COc1ccc(-c2nc3cc(NC(=O)C4CCCCC4)ccc3o2)cc1OC | 1.1 | 0.65
CCOCCCNC(=O)c1ccc2c(c1)ncn2-c1cccc(F)c1 | 1 | -0.0053
Cc1ccc(-c2nnc(SCC(=O)N3CCOCC3)o2)cc1 | 0.97 | -0.075
Cc1cccc(C(=O)Nc2sc3c(c2C(=O)N2CCOCC2)CCCC3)c1 | 1.1 | 0.069
O=C(O)CCc1ccc(-c2cccs2)n1-c1ccc(Br)cc1 | 1 | 0.051
O=C1CC(c2ccc(S(=O)(=O)Nc3cc(C(F)(F)F)ccc3Cl)cc2)CN1 (stereo not drawn) | 0.89 | -1.8
CC(=O)N1CCc2cc(S(=O)(=O)NCCCN(C)Cc3ccccc3)ccc21 | 1.5 | 3.7
COc1ccc(-c2cc(C(F)(F)F)n3nc(C(=O)O)cc3n2)cc1 | 0.99 | -0.13
Cc1ccc(S(=O)(=O)N2CCN(c3nc(-c4ccccc4)cs3)CC2)cc1 | 0.94 | -1.7
Cc1nc2c(-c3ccc(F)cc3)c(C)nn2c(C)c1CCC(=O)NCc1ccccc1 | 1 | 1
CCCCCn1c(=O)[nH]c2cc(C(=O)NCc3cccnc3)ccc2c1=O | 1 | 0.9
Cc1ccc(Nc2nc(-c3c(C)nc4sccn34)cs2)c(C)c1 | 0.42*! | -0.65*!
CCN(c1ccccc1)S(=O)(=O)c1ccc2[nH]cc(C(=O)NCc3ccccc3Cl)c(=O)c2c1 | 0.83 | -2.5
Cc1ccc(C)c(Cn2c(CNC(=O)c3ccc(F)cc3)nc3ccccc32)c1 | 0.77 | -2.6
Cc1c(C)n(Cc2ccccc2)c2ccc(C(=O)OCCCN(C)C)cc12 | 0.89 | -2.8
CCN(CC)CC(C)CNC(=O)c1cnn2c(C)c(Cc3ccccc3)c(C)nc12 (stereo not drawn) | 0.96 | -0.91
COc1ccc(-c2cc(-c3cc(Cl)ccc3O)[nH]n2)cc1 | 0.93 | -3
CNC(=O)COc1ccc(Nc2nnc(-c3ccc(C)c(S(=O)(=O)N4CCOCC4)c3)c3ccccc23)cc1 | 1 | 0.016
CCCN1Cc2cccc(C(=O)NC3CCCCC3)c2C1=O | 1 | 0.049
Cc1ccc(Nc2c(-c3ccc(N4CCOCC4)cc3)nc3cc(C)ccn23)cc1 | 0.84 | -2.6
COc1ccc(CN2CCN(Cc3cccnc3)CC2)c(OC)c1OC | 0.78 | -2.6
Cc1ccn2c(NC(=O)c3ccc(F)cc3)c(-c3ccccc3)nc2c1 | 1.2 | 1.7
Cc1cccc(NC(=O)Cn2cc(S(=O)(=O)c3ccc(Cl)cc3)c(=O)c3ccccc32)c1 | 0.98 | -0.33
O=C(CCn1c(=O)c2sccc2n(CC(=O)c2ccc(F)cc2)c1=O)NCc1ccc2c(c1)OCO2 | 0.79 | -3.4
Cc1onc(-c2c(F)cccc2Cl)c1C(=O)NCc1ccc(S(N)(=O)=O)cc1 | 1 | 0.53
Cc1ccc(C)c(N2CCN(c3nc4ccccc4nc3C(F)(F)F)CC2)c1 | 1.2 | 4.6
COc1ccc(C(=O)Nc2ccc3oc(-c4ccc(OC)c(Cl)c4)nc3c2)cc1 | 1 | 0.01
O=C(Nc1ccc(Br)cc1)c1cc(-c2cccs2)nc2ccccc12 | 0.97 | -0.13

Going on with the list.
SMILES | CBX7 inh | CBX7 inh z-score
O=C(CCN1C(=O)COc2ccccc21)NCCc1ccc(Cl)cc1 | 1.1 | 3.8
O=C(Nc1cccc2ccccc12)N1CCC(n2c(=O)[nH]c3ccccc32)CC1 | 1 | 0.094
Cc1cccc(C)c1NC(=O)C(c1ccccc1)N1CCN(c2ccccc2)CC1 (stereo not drawn) | 1.4 | 0.88
COc1ccc(-c2cn(-c3ccc(OC)cc3)c(SCC(=O)Nc3ccc(Cl)cc3)n2)cc1 | 0.94 | -1.9
COc1cccc(-c2nc(CS(=O)(=O)CC(=O)NCCCN3CC(C)CC(C)C3)c(C)o2)c1 (stereo not drawn) | 1.4 | 3.8
Cn1nc(-c2ccc(N3CCCCC3)c(NC(=O)c3ccccc3Cl)c2)c2ccccc2c1=O | 0.74 | -1.1
CC(C)C(=O)NC(C)C(c1cccs1)N1CCOCC1 (stereo not drawn) | 1.2 | 5.3
COc1ccc(C)cc1NC(=O)c1cnc2scc(C)n2c1=O | 1.1 | 0.37
Cc1ccc(CN2C(=O)CSc3ccc(C(=O)NCCc4ccc(Cl)cc4)cc32)cc1 | 1 | 1.2
COCCNC(=O)c1ccc2c(c1)N(Cc1cc(C)ccc1C)C(=O)c1ccccc1S2 | 0.96 | -1.9
CN1CCc2c(C#N)c(N3CCCCC3)nc(N3CCCC3)c2C1 | 0.99 | -0.17
O=C(CN1C(=O)CSc2ccc(S(=O)(=O)N3CCCCC3)cc21)NC1CCCCC1 | 0.98 | -0.89
O=C(Nc1nc2ccccc2s1)c1ccccc1O | 0.72 | -1.1
c1ccc(C(Cc2nc(-c3ccncc3)no2)c2ccccc2)cc1 | 1 | 0.21
CC1(C)CC(=O)C2=C(C1)Nc1ccccc1NC2c1cccc(C(F)(F)F)c1 (stereo not drawn) | 1 | 0.27
CCc1ccc(CNC(=O)C2CCCN(c3nc4ccccc4o3)C2)cc1 (stereo not drawn) | 1 | 0.78
Cc1cc2ccccc2c(=O)n1CC(=O)N1CCN(c2cccc(Cl)c2)CC1 | 1 | 1.1
CCOc1cc2[nH]c(=O)n(CCCC(=O)NCCc3ccccc3)c(=O)c2cc1OCC | 0.96 | -0.77
CC1CC(C)CN(S(=O)(=O)c2ccc(C(=O)Nc3nc(-c4ccncc4)cs3)cc2)C1 (stereo not drawn) | 1 | 0.37
COc1ccc(CNC(=O)C(NS(=O)(=O)c2ccc3c(c2)CCC(=O)N3)c2ccccc2)cc1 (stereo not drawn) | 1 | 0.66

Three neighbouring compounds out of the list so far:
SMILES | CBX7 inh | CBX7 inh z-score
CC(C)C(=O)NC(C)C(c1cccs1)N1CCOCC1 (stereo not drawn) | 1.2 | 5.3
COc1ccc(C)cc1NC(=O)c1cnc2scc(C)n2c1=O | 1.1 | 0.37
Cc1ccc(CN2C(=O)CSc3ccc(C(=O)NCCc4ccc(Cl)cc4)cc32)cc1 | 1 | 1.2

4 of these compounds in another layout:
SMILES: CC1CC(C)CN(S(=O)(=O)c2ccc(C(=O)Nc3nc(-c4ccncc4)cs3)cc2)C1 (stereo not drawn)
  CBX7 inh = 1
  CBX7 inh z-score = 0.37
SMILES: O=C(CN1C(=O)CSc2ccc(S(=O)(=O)N3CCCCC3)cc21)NC1CCCCC1
  CBX7 inh = 0.98
  CBX7 inh z-score = -0.89
SMILES: COCCNC(=O)c1ccc2c(c1)N(Cc1cc(C)ccc1C)C(=O)c1ccccc1S2
  CBX7 inh = 0.96
  CBX7 inh z-score = -1.9
SMILES: CC(C)C(=O)NC(C)C(c1cccs1)N1CCOCC1 (stereo not drawn)
  CBX7 inh = 1.2
  CBX7 inh z-score = 5.3

Continuation.
SMILES | CBX7 inh | CBX7 inh z-score
COc1ccc(CC(=O)N2CC(=O)Nc3ccc(C)cc3C2c2ccccc2)cc1 (stereo not drawn) | 0.96 | -1.1
COc1ccc(C(=O)NC(C)c2nc3ccccc3n2Cc2ccccc2C)cc1OC (stereo not drawn) | 0.94 | -1.9
Cc1nc2c(C(=O)NCc3ccc(F)cc3)cnn2c(C)c1Cc1ccccc1Cl | 1 | 0.1
COc1ccc(Cl)cc1NC(=O)c1cc(-c2ccc(Cl)cc2)on1 | 0.98 | -1
Cc1ccc(C(=O)Nc2ccccc2-c2nc3ccccc3s2)cc1 | 1.3 | 7.3
CCCCCNC(=O)CCCCCn1c(=O)[nH]c2ccsc2c1=O | 0.88 | -0.94
CN(C(=O)Cc1nc(N)n[nH]1)C1(C(=O)Nc2ccccc2)CCCCC1 | 0.027* | -18*
Cc1cc(C)cc(NC(=O)C2CCN(S(=O)(=O)c3ccccc3)CC2)c1 | 1 | 0.7
Cc1ccc(OC(=O)c2sc3ncn(Cc4ccccc4F)c(=O)c3c2C)cc1 | 1.1 | 1.7
Cc1ccc(OCC(=O)Nc2ccc(-c3nc4cc(Cl)ccc4o3)cc2)c(C)c1 | 1.1 | 2.3
O=C(CC1(O)C(=O)Nc2ccccc21)c1cccs1 (stereo not drawn) | 1 | 0.41
O=C(Cn1ncc2c1-c1ccccc1OC2)Nc1ccc(Cl)cn1 | 0.98 | -0.63
CCOc1ccc(-c2nnc(Nc3ccc(OC)c(C(=O)NC)c3)c3ccccc23)cc1 | 1 | 0.16
CC1C(c2ccccc2)NC(c2ccccc2)CC1(O)Cc1ccccc1Cl (stereo not drawn) | 0.95 | -0.61
CCc1ccccc1N(C)C(=O)CCc1nc(-c2ccccc2F)no1 | 0.93 | -1.4
CC(=O)Oc1c(C)ncc2c1COC(C)(C)OC2 | 1 | 0.9
COc1ccc2c(c1)-c1nc(NC(=O)c3cc(Cl)ccc3OC)sc1CC2 | 1 | 0.28
CN(CC(=O)NCc1ccccc1Cl)S(=O)(=O)c1cnc[nH]1 | 1 | 0.53
O=S(=O)(Nc1nc2ccccc2nc1N1CCN(c2ccccc2)CC1)c1ccccc1 | 0.83 | -4.9
CC(=O)Nc1ccc(Cl)c(-c2nc3cc(Cl)ccc3o2)c1 | 1 | 1
COc1ccc(-c2noc(CCC(=O)Nc3cc(C)ccn3)n2)cc1 | 1.1 | 0.063
Cc1ccc(NC(=O)Cn2cnc3sc(C)c(S(=O)(=O)N4CC(C)CC(C)C4)c3c2=O)cc1F (stereo not drawn) | 1.1 | 2.1
O=C(Nc1nnc(-c2ccccc2)s1)c1cccc(S(=O)(=O)N2CCOCC2)c1 | 0.97 | -0.86
CCn1c(C(C)NC(=O)c2ccccc2)nc2ccccc21 (stereo not drawn) | 0.85 | -1.7
CCC(=O)Nc1c2c(nn1-c1ccc(F)cc1)CSC2 | 1 | 0.32
Cc1nc2ccc(S(=O)(=O)NC(CC(C)C)C(=O)NC(C)c3ccccc3)cc2s1 (stereo not drawn) | 1 | 0.58

An excerpt; the hit share may differ from the screen's.
